High-throughput results: PubChem BioAssay, National Center for Advancing Translational Sciences (NCATS)
Rango release inh: inhibition of RanGTP-driven Rango-importin beta dissociation; O95149+P62826; Biochemical FRET Rango-importin beta, RanGTP-induced dissociation; Potency, µM (top dose mostly 46.1 µM), inactives show at the top dose activity change, negative = inhibition; 0.071% of 340,000 active; active means falling FRET ratio curve, often poorly fitted, with flat reads before Ran was added; inconclusive means other falling curves, or compound fluorescence or quenching; inactive means flat or rising ratio curve;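 note: potency is the fitted concentration of half-maximal effect; % of control where 0% means no effect; nearly all actives have a fitted effect of over 45% in size; -100% = wells without RanGTP and RCC1; the record marks most hits as doubtful in a second field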
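Recombinant Rango FRET biosensor (EYFP–snurportin 1 IBB–cerulean CFP10) at 0.1 uM premixed with 0.25 uM importin beta in PBS, 1 mM DTT, 0.02% Tween-20, 0.1% BSA. Compound added 5 min; RanGTP-RCC1 (0.6 uM Ran, 2 mM GTP, 0.2 uM RCC1) then triggers release, read at 45 min.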
Rango complex inh: inhibitors of Rango-importin beta complex formation | 0.031% of 340,000 active | Rango CFP/YFP FRET sensor + importin beta, 45 min | AID 540263 | Q14974 | Potency, µM (highest dose often 92.2 µM), for the others: at the top dose inhibition of complex formation; active = rising FRET ratio curve, often small or poorly fitted; inconclusive = mostly compound fluorescence or quenching in the first reads; inactive = flat curves in all reads;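 note: potency is the fitted concentration of half-maximal effect; 0% = DMSO wells and 100% = buffer wells lacking importin beta; nearly all actives have a fitted effect of over 15% in size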
Target sequence (Q14974 whole entry, looked up): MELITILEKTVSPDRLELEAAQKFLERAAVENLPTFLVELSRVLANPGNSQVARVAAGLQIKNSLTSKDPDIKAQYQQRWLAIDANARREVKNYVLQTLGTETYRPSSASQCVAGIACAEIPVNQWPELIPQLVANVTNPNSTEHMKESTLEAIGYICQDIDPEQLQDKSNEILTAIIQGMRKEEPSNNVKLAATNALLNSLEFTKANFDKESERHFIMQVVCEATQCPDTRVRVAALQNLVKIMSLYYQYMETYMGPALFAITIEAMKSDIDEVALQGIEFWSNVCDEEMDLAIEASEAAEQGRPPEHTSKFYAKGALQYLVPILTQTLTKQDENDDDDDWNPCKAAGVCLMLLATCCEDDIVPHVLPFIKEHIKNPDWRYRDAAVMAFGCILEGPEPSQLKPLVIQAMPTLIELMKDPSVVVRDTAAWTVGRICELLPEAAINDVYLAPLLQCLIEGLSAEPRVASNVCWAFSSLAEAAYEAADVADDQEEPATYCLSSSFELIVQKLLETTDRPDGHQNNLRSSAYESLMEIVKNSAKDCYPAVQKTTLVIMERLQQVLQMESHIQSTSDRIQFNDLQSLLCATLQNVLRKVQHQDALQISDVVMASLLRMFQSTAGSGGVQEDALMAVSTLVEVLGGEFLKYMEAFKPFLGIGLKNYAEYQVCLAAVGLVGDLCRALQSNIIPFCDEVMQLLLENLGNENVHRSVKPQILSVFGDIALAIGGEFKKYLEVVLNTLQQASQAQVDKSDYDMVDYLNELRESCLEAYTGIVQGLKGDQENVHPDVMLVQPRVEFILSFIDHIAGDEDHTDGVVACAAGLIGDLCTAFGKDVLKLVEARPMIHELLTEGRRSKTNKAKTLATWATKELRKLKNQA
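FRET biosensor Rango (snurportin 1 IBB between N-terminal EYFP and C-terminal Cerulean), 50 nM in PBS/1 mM DTT/0.02% Tween-20/0.1% BSA, preincubated 5 min RT with compound; 0.125 microM importin beta added, 45 min RT, CFP/YFP FRET ratio read.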
miR-21 reporter: miR-21 reporter, rising signal. AID 2288. HeLa miR-21 FLuc reporter, luciferase, 48 h. 340,000 tested, under 10 active. Potency, µM (highest dose often 38.3 µM), for the others: at the highest dose reporter change, positive = more light; active = well fitted rising curve with a large enough effect; inconclusive = small, poorly fitted or top-dose-only effect; inactive = no such curve, though single readings can be large or run the other way;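 note: % of control where 0% means no effect; miR-21 action dims this reporter so a rising signal means less miR-21 action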
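HeLa cells endogenously expressing miR-21, stably carrying CMV-driven firefly luciferase with a downstream miR-21 binding site, 2000 cells/well. Titrations up to approximately 40 uM, 48 hours; luciferase luminescence read.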
GLA inh pH 4.5: inhibitors of human alpha-galactosidase A at pH 4.5; purified enzyme, 4-MU-alpha-Gal fluorescence, pH 4.5; 230,000 tested, under 10 active; activity change, negative = inhibition, % at 105 µM; P06280; inconclusive = small, poorly fitted or top-dose-only inhibition, or a rising curve; inactive = flat fitted curve, though single readings scatter; no compound was filed as active;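 note: 0% = full activity with enzyme and -100% = basal without enzyme; dose as in the result columns while the protocol names 77 µM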
* marks the source's active call; other numbers are inactive results; ? = inconclusive; nt = not tested or not shown; [ ] = dose if it differs, or a comment. A portion of the library. The share of hits here may be higher or lower than overall.

mol | Rango release inh | Rango complex inh | miR-21 reporter | GLA inh pH 4.5
CCOC(=O)c1ccccc1NC(=O)N1CCn2c(C)ccc2C1CC (stereo unspecified) | ? | ? | 0.4% | 0.4
COc1ccc(NC(=O)COC(=O)C2CC2)c(OC)c1 | 1.0% | 0.0% | nt | nt
CC(C)Cc1cc(C(=O)Nc2cc(Cl)ccc2Cl)no1 | -2.5% | -2.9% | -0.9% | -4.0
Cc1c(CC(=O)N2CCN(C(=O)C3COc4ccccc4O3)CC2)c(=O)oc2c(C)c(O)ccc12 (stereo unspecified) | ? | ? | 12.7% | nt
CCN(CC)CCCNC(=O)Cn1cnc2ccc(S(=O)(=O)N3CCC(C)CC3)cc2c1=O | 4.4% | 3.0% | -1.3% | -2.0[21.1 µM]
CCC1CCCCN1CCCNC(=O)C1CCCN(c2nn3c(=O)cc(C)nc3s2)C1 (stereo unspecified) | 17.6% | 0.4% | -0.5% | nt
Cc1n[nH]c(=S)n1/N=C/c1ccc(-c2ccccc2[N+](=O)[O-])o1 | -7.8% | 1.1% | 0.4% | -1.8
O=C(Cc1ccc(F)cc1)Nc1cccc2cccnc12 | 2.8% | -5.6% | -19.3% | 0.6
Cc1nnc(SCC(=O)N2CCN(C(=O)c3ccco3)CC2)n1-c1ccccc1 | 0.1% | -4.2% | -0.6% | -2.4
O=c1c2cc(Cl)ccc2oc2nc3n(c(=O)c12)CCCS3 | 32.6% | -3.5% | 0.1% | 4.0
O=C(CN1C(=O)NC(Cc2ccccc2)C1=O)Nc1ccc(F)c(Cl)c1 (stereo unspecified) | 5.2% | -0.2% | nt | nt
CCCc1nc(N2CCOCC2)c(C#N)c2c1CCCC2 | ? | ? | -6.6% | -13.8
CCC(Oc1ccccc1OC)C(=O)Nc1ccc2c(c1)n(C)c(=O)n2C (stereo unspecified) | -20.5% | -0.2% | -11.3% | nt
C/C=C/C(=O)N[C@@H]1c2ccccc2CC[C@@H]1OCc1ccccc1 | 0.0% | 0.4% | nt | nt
COc1cc(C)c(Cl)cc1S(=O)(=O)NCc1ccncc1 | nt | nt | 10.2% | -11.5
CCOCCCn1c(=S)[nH]c2cc(C(=O)NCCN(CC)CC)ccc2c1=O | 6.7% | 0.6% | -1.2% | -5.0
COc1ccc(N2CCN(C(=O)CCS(=O)(=O)c3ccc(OC)cc3)CC2)cc1 | 12.2% | -3.8% | 0.3% | -0.5
CCn1c(O)c(N=NC(=O)CNc2cccc(C)c2)c2ccccc21 | 1.0% | -3.1% | -4.6% | -11.6
CC1CCN(c2ncnc3c2cnn3-c2ccccc2)CC1 | -11.7% | 6.5% | -28.1% | 10.5
O=C(c1ccccc1)N1CCN(CC(O)COC2CCCCC2)CC1 (stereo unspecified) | 2.0% | 0.0% | -3.0% | -8.7
CC(=O)Nc1cc2c(c(Cl)c1Cl)-c1ccccc1C2=O | 6.2% | 0.9% | nt | nt
CSc1nc(C)c(Oc2ccccc2)c(=O)n1C | -9.9% | -2.9% | -15.4% | -3.8
CC(C)(C)c1cc(Cl)c(O)c(NC(=S)NC(=O)c2cccnc2)c1 | -0.6% | 0.9% | 16.3% | -7.8
Cc1ccc(C(=O)N(CCN(C)C)CC2CCCN(Cc3ccccc3F)C2)cc1C (stereo unspecified) | 16.8% | -1.1% | -5.8% | nt
COc1cc(C(=O)Nc2nc3ccccc3[nH]2)ccc1OC(F)F | -7.0% | 5.6% | -9.2% | -2.0
Cc1ccc(C(=O)COC(=O)c2cccc(O)c2)s1 | 0.7% | -3.1% | nt | nt
O=C(CC12CC3CC(CC(C3)C1)C2)Nc1c(F)cccc1F | 18.0% | -12.0% | -12.9% | nt
C=C1CCN(C(C)C(=O)O)S(=O)(=O)c2ccccc21 (stereo unspecified) | 0.7% | 3.7% | -4.0% | -2.6
CCCc1cc(=O)oc2c3c(cc(OCC(=O)NCCN4CCOCC4)c12)OC(C)(C)CC3 | 2.5% | 1.8% | -17.3% | nt
COCCN(C(=O)CSc1nc(N)cc(=O)[nH]1)c1c(N)n(Cc2ccccc2)c(=O)[nH]c1=O | -2.2% | -1.0% | nt | nt
COc1cccc(-c2coc3c(C)c4oc(=O)c(CC(=O)O)c(C)c4cc23)c1 | -5.1% | ? | -0.6% | nt
COc1ccc(OC)c(NC(=O)c2ccc(NS(=O)(=O)c3c(C)noc3C)cc2)c1 | 18.7% | -1.7% | -19.2% | -2.5
COc1ccc2nc(NCc3ccc(OC)c(OC)c3OC)sc2c1 | -3.3% | -2.6% | nt | nt
Cc1ccc(/C(N)=N/OC(=O)C23CC4CC(CC(C4)C2)C3)cc1 | 0.5% | 1.9% | -41.7% | -7.8
O=C(c1ccncc1)N1CCN(C(=O)c2cccs2)CC1 | 6.9% | 1.1% | -3.2% | 5.1
O=C(NCc1ccc2c(c1)OCO2)c1ccc(CS(=O)Cc2ccc(Cl)cc2)o1 (stereo unspecified) | 9.4% | 0.9% | ? | nt
COC(=O)c1ccc(C2C(C(C)=O)=C(C)Nc3ncnn32)cc1 (stereo unspecified) | 8.1% | -2.5% | -27.1% | -21.6
COc1ccc(C=O)cc1Cn1c(C)cc(C)c(C#N)c1=O | 0.7% | -0.2% | 0.6% | -11.3
COc1ccc(OC)c(NC(=O)c2ccc(NC3=NC4CS(=O)(=O)CC4S3)cc2)c1 (stereo unspecified) | -12.7% | -2.7% | -7.7% | nt
COc1ccc(NC2=CC(=O)CC(c3ccc(C)cc3)C2)c(OC)c1 (stereo unspecified) | -29.2% | ? | nt | nt
Cc1nc2ccccc2c(=O)n1/N=C/c1ccc(OC(F)F)cc1 | 11.5% | 2.6% | -18.1% | nt
CC(C)Oc1cccc(C(=O)NC(=S)Nc2ccc(N3CCN(C)CC3)cc2)c1 | 12.9% | 2.7% | -14.9% | -5.3
CCCn1c(=N)n(CC(=O)c2ccco2)c2ccccc21 | -2.6% | -1.4% | -1.4% | -4.2
CC(=O)Nc1ccc(NC(=O)C2CCCN2S(=O)(=O)c2cccc(C(F)(F)F)c2)cc1 (stereo unspecified) | -0.5% | 0.4% | -11.8% | nt
c1ccc(CN(Cc2ccccc2)c2nn[nH]n2)cc1 | 2.1% | 1.6% | -4.6% | -2.6
O=C(Oc1cccc(NC2=NS(=O)(=O)c3ccccc32)c1)c1ccncc1 | -0.2% | -0.1% | -15.5% | 5.3
CC(=O)[C@H]1[C@H](c2cccc(Cl)c2)C(C#N)(C#N)[C@@H]2c3ccccc3C=CN21 | nt | nt | -12.0% | 0.0
COc1ccccc1C(=O)N1C(CC(=O)Nc2ccc(C)c(C)c2)C(=O)NC2CCCCC21 (stereo unspecified) | -12.3% | -0.2% | 17.1% | nt
Cc1onc(-c2ccccc2)c1-c1ccnn1C(=O)NC(C)C | -2.0% | -0.5% | 6.0% | 3.6
Cc1cc(C)c(C)c(S(=O)(=O)NCc2ccc(C(=O)NCC3CCCO3)cc2)c1C (stereo unspecified) | 0.7% | 5.6% | 3.2% | nt

Going on with the list:
mol | Rango release inh | Rango complex inh | miR-21 reporter | GLA inh pH 4.5
CC(=O)Nc1ccc(S(=O)(=O)N2CCCN(c3nc(C)cc(C)c3C#N)CC2)cc1 | 10.4% | -1.3% | -4.1% | nt
Cc1cccc(C)c1NC(=O)CNC(=O)c1ccc(COc2ccccc2)cc1 | 8.2% | -2.2% | nt | nt
COc1ccc(CN(C)CC(=O)Nc2ccccc2C(F)(F)F)c(OC)c1 | -2.7% | 2.4% | -11.9% | 9.5
O=C(Nc1ccc(N2CCOCC2)cc1)C1(S(=O)(=O)c2ccccc2)CC1 | -0.4% | -3.1% | -8.4% | -6.0
CCCSCCCNC(=O)Cn1cc2c(n1)CCC(C)C2 (stereo unspecified) | 4.5% | ? | -2.7% | 1.9
C[n+]1ccn(CC(=O)c2ccc(Br)cc2)c1 | 22.9% | -4.5% | -3.6% | -0.3
COc1ccc(C2c3c(ccc4ccccc34)Oc3ncn4nc(Cc5ccccc5)nc4c32)cc1OC (stereo unspecified) | 0.3% | 0.2% | -11.6% | -10.9
Cc1ccc(S(=O)(=O)N2CCN(C(=O)CCOc3cc(C)ccc3C)CC2)cc1 | -0.4% | 0.0% | nt | nt
COC(=O)CCN1CCC2CC1c1cc(Cl)ccc12 (stereo unspecified) | 0.9% | -0.5% | nt | nt
CC(C)NC(=O)NC(=O)COC(=O)CCCSc1nc2ccccc2s1 | 3.3% | 3.2% | 26.1% | -19.0
CCc1cccc(NC(=O)c2cc(OC)c(OC)c(OC)c2)c1 | -1.7% | 1.7% | -1.0% | -3.8
O=c1[nH]c(/C=C/c2ccc([N+](=O)[O-])cc2)c([N+](=O)[O-])c(=O)[nH]1 | -5.0% | -4.4% | 2.9% | nt
O=C1CN(C(=O)c2ccc(Br)o2)C(c2ccc(F)cc2)c2cc(F)ccc2N1 (stereo unspecified) | 11.1% | -2.7% | 6.5% | 4.4
CC(C)c1onc(C(=O)N2CCN(c3ccccc3)CC2)c1[N+](=O)[O-] | 3.9% | -0.2% | 1.3% | -8.0
Cc1cc(OCCn2nc(C(=O)O)c3ccccc3c2=O)ccc1C(C)C | -14.9% | 0.5% | -10.0% | nt
O=C1CSC(=S)N1c1ccccc1 | 5.8% | 2.7% | nt | nt
CC1CCCCN1CCNC(=O)CN1C(=O)COc2ccccc21 (stereo unspecified) | 5.9% | -3.6% | -3.0% | -4.7
COc1ccc(-n2c(NC(=O)c3ccc(Br)o3)c(C#N)c3nc4ccccc4nc32)cc1 | nt | nt | -0.4% | -11.0
COC(=O)N/N=C(\C)c1cccc(C(F)(F)F)c1 | -6.7% | 4.8% | -14.8% | 5.7
CC1CC(=O)c2cnc(N)nc2C1 (stereo unspecified) | -8.0% | -2.7% | -1.6% | -2.2
CCO[C@H]1OC(C(=O)NC2CC2)=C[C@@H](c2coc3ccccc3c2=O)[C@@H]1CCCO | -1.2% | -1.2% | 2.8% | 1.7
O=C(Nc1ccc(Oc2ccc(Cl)cc2)cc1)c1ncn[nH]1 | -1.0% | 3.4% | -0.8% | 1.2
CC(C)CCNC(=O)CCCC1=NS(=O)(=O)c2ccccc2N1 | -0.8% | 0.3% | -4.7% | 0.3
O=C(NCc1ccccc1)C(=O)NCC1OCCCN1S(=O)(=O)c1cccs1 (stereo unspecified) | -2.1% | -1.0% | -8.9% | nt
COc1cc(-c2c(C#N)c(N)nc(SCc3ccncc3)c2C#N)cc(OC)c1OC | 26.1% | 3.0% | -2.8% | -7.2
CCN(CC(=O)Nc1c(F)cccc1F)C(=O)C1CC(=O)N(c2ccccc2OC)C1 (stereo unspecified) | 1.7% | 0.2% | 0.8% | nt
COc1ccc(-c2nn(-c3ccccc3)cc2C(=O)NC2CCCCC2C)cc1 (stereo unspecified) | 1.0% | -0.1% | nt | nt
CC(C)(C)OC(=O)N/N=C\c1ccc(OC(=O)c2cccs2)cc1 | 4.2% | 0.0% | -41.7% | -5.2
CN(Cc1cccc(F)c1)C(=O)c1cc(=O)[nH]c2ccccc12 | -4.3% | -3.8% | 1.9% | nt
O=C(Nc1cc(S(=O)(=O)N2CCOCC2)ccc1-n1cncn1)c1ccc(Cl)cc1 | -1.5% | ? | -1.4% | -2.2
COc1cccc(NC(=S)NCc2ccco2)c1 | -1.1% | -1.5% | -30.8% | -7.8
O=C(OCCOc1ccc(F)cc1)c1ccc(S(=O)(=O)N2CCCC2)cc1 | 7.7% | 2.5% | nt | nt
O=C(CCCNC(=O)/C(=C/c1ccc(F)cc1)NC(=O)c1ccccc1)OCc1ccccc1 | 1.4% | -2.3% | -0.2% | 0.4
Cc1ccc[n+](CC(=O)c2ccc(NC(=O)c3ccccc3)cc2)c1 | -10.7% | 8.5% | -1.0% | -4.7
Cc1ccccc1OCc1nc(-c2ccc(Br)o2)no1 | -7.9% | ? | -52.7% | 2.4
